Source: PubChem BioAssay
E coli growth: blocks Escherichia coli growth; OD600, 23 h; hits give low values; OD600 absorbance (concentration not given with the values); 330,000 tested, 0.21% active;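 active = OD600 absorbance below the run mean of sample wells minus 3.6 SD, in any replicate, cut at about 0.56 in these data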;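 note: stock transfer was 300 nL into about 60 µL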
rRNA inh HTS: inhibits bacterial ribosomal RNA function over humanized ribosomes. E. coli WT GFP vs humanized-ribosome RFP mutants, fluorescence, 24 h; hits give low values; DMSO median 0, no signal -100. GFP signal change (wild-type ribosome), % (no concentration beside the values). 350,000 tested, 1.6% active. AID 720706;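 active = significant combined selectivity score with lowered wild-type GFP, culture density cut under 30%, mutant RFP and density less affected; inactive = any of these conditions unmet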; note: one replicate is shown; some compounds called inactive have numbers as strong as hits
HNF4A DNA FP: change in binding of human HNF4 alpha to DNA | 360,000 tested, 0.3% active | P41235 | HNF4a-FITC DNA binding, fluorescence polarization, 1 h | AID 1224865 | activity change, % at 10 µM; in the data active = activity change above about 30%, passing the limit was not always enough;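 note: controls were the assay level and a saturating level of protein; the project sought stronger binding though the title names inhibitors; some compounds called inactive have numbers as strong as hits; positive values seem to mean higher polarization but the record does not say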
UCH37 inh: inhibitors of human deubiquitinating enzyme UCH37; AID 588478; inhibition, % (concentration not given with the values); 330,000 tested, 0.33% active; purified proteasome/UCH37, Ub-AMC cleavage fluorescence;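 active = mean of two replicates above 20%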;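 note: 0% = compound-free wells with enzyme and 100% = wells lacking proteasome; stock transfer was 100 nL into about 20 µL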
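Material: human UCH37 enzyme supplied as purified proteasome complex / Amount: 0.15 nM proteasome as dispensed / Buffer or medium: pH 7.4 Tris-HCl (50 mM) with ovalbumin, ATP-MgCl2, DTT / Times: preincubation 30 min, reaction 25 min, room temperature / Technique: AMC fluorescence from Ub-AMC cleavage, excitation 355 nm, emission 460 nm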
B2AR ag: activates human beta-2 adrenergic receptor causing internalization. P07550. response, % (concentration not given with the values). Am2.2-beta2AR cells, FAP receptor internalization, flow cytometry; reference of the scale not given here. 340,000 tested, 0.43% active. AID 504454;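 active = response above a set limit, near 3 SD of response in nonfluorescent compounds, cut at about 42% in these data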;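 note: stock transfer was 100 nL into about 11 µL; a reference agonist was the positive control; negative values mostly stem from fluorescent compounds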
Target sequence (P07550 whole entry, looked up): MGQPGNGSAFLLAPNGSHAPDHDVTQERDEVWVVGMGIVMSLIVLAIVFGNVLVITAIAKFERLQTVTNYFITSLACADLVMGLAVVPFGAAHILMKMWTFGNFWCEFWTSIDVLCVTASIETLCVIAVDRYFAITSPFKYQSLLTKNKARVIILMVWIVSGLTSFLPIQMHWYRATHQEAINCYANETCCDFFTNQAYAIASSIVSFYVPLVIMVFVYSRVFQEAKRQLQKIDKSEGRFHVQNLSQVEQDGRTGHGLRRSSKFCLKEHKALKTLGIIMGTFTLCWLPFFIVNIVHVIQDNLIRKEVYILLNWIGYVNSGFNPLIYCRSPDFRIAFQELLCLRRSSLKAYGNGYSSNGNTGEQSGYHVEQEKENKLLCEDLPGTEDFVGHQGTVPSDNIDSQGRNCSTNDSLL
ALR inh: blocks human ALR sulfhydryl oxidase activity. inhibition, % (concentration not given with the values). AID 485317. purified ALR, DTT oxidation, H2O2 HRP-luminol luminescence. 290,000 tested, 3.8% active. P55789;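 active = mean and each replicate at 75% or more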;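 note: stock transfer was 7.5 nL into about 7.5 µL; 0% = neutral wells and 100% = wells with inactivated enzyme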
Target sequence (P55789 whole entry, looked up): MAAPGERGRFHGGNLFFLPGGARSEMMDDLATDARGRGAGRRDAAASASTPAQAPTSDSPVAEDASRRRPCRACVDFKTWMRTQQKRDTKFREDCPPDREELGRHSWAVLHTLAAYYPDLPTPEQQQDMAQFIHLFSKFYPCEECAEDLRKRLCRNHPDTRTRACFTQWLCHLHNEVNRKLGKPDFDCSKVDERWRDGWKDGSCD
FGF22 binding: binders of recombinant human FGF22 by thermal shift; 340,000 tested, 1.5% active; Q9HCT0; calls only at 9.99 µM; SYPRO orange fluorescence; percent of sucrose octasulfate shift, DMSO zero; AID 651658;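 active = melting point raised past a set limit in the mean and every replicate; three in four hits are not shown here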
Target sequence (Q9HCT0 whole entry, looked up): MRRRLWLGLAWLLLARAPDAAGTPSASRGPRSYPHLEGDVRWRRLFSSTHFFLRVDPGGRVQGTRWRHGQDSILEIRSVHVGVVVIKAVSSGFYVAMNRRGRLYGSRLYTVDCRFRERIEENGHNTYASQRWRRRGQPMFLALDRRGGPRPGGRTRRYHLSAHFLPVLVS
rRNA inh HTS OD600: further read-out of rRNA inh HTS, marked with its call; OD600 change, %; measured here: OD600 growth;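 optical density of the mix in the first replicate; 0 = DMSO median and -100 = no signal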
rRNA inh HTS RFP: further read-out of rRNA inh HTS, marked with its call; RFP signal change, %; measured here: RFP humanized mutant strains;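 first replicate; 0 = DMSO median and -100 = no signal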
Starred values were filed as active, the others as inactive; i = inactive; x = not tested or not shown. A portion of the library. The share of hits here may be higher or lower than overall.

Results follow in this order: E coli growth | rRNA inh HTS | rRNA inh HTS OD600 | rRNA inh HTS RFP | HNF4A DNA FP | UCH37 inh | B2AR ag | ALR inh | FGF22 binding
1) CN1CCN(c2nccc3c2ncn3C)CC1
  0.716 | x | x | x | -1.8 | 5.7 | -1.6 | -4.7 | x
2) CN1CCN(c2ccc(C=O)cc2)CC1
  0.725 | x | x | x | 2.6 | 8.1 | 7.4 | 3.9 | x
3) O=[N+]([O-])c1nccn1CC(O)CN1CC1 (centres undefined)
  x | 10.3 | 9.5 | -0.9 | 4.1 | x | x | x | i
4) CCCNC(=O)N1[C@H]2CC[C@@H]1C(C(=O)OC)=C(c1ccc(F)cc1F)C2
  x | 6.8 | -0.1 | -0.2 | -2.8 | 1.9 | 9.2 | -2.4 | i
5) CCOP(=O)(OCC)C(CC)N1CCOCC1 (centres undefined)
  0.767 | x | x | x | 1.0 | 3.5 | 7.1 | -1.5 | x
6) CCOC(=O)C1(c2ccccc2)CCN(CC(O)c2ccc(NC(C)=O)cc2)CC1 (centres undefined)
  0.667 | 10.8 | 6.9 | -0.7 | -2.0 | -0.7 | 5.8 | x | i
7) Cc1cccc(OCC(=O)N2CCN(Cc3ccncc3)CC2)c1
  0.703 | x | x | x | -0.5 | -1.6 | 0.4 | -1.7 | x
8) O=C(O)C1C2CCC(O2)C1C(=O)NC1CCCCC1 (centres undefined)
  0.711 | 5.9 | 14.1 | 0.5 | -3.5 | -0.3 | -1.2 | 4.8 | i
9) COc1ccc(-n2cnc3cc(C(=O)N4CCC5(CC4)OCCO5)ccc32)cc1
  0.699 | 5.7 | -2.7 | 0.6 | -2.1 | 0.5 | -9.3 | -3.4 | i
10) O=C(CCCc1ccc(N(CCCl)CCCl)cc1)NCc1ccccc1
  x | 0.2 | 6.8 | 1.6 | 1.5 | x | x | x | i
11) CC(=O)OC1CC[C@]2(C#N)[C@H]3CC[C@]4(C)[C@H](C5C=CC(=O)O5)CCC4(O)C3CCC2(O)C1 (some centres undefined)
  0.639 | -57.0 | -80.1 | -19.2 | 1.7 | 4.4 | -5.1 | -1.8 | i
12) Cn1ccnc1P(=S)(c1nccn1C)N1CCOCC1
  0.694 | x | x | x | -3.2 | 1.4 | 0.5 | -16.7 | x
13) CCOC(=O)C(NC(C)=O)C(OC(C)=O)c1cccc(N(CCCl)CCCl)c1 (centres undefined)
  0.704 | x | x | x | -1.7 | -1.2 | -3.0 | -1.8 | x
14) CC1CN=C(Nc2ccc(N(C)C)cc2)S1 (centres undefined)
  0.66 | x | x | x | -2.5 | 0.7 | 10.5 | 89.3* | x
15) O=C(c1cccn2c(=O)c3cc(Cl)ccc3nc12)N1CCC2(CC1)OCCO2
  0.711 | x | x | x | -0.8 | -497.3 | -12.3 | -5.7 | x
16) CC(Cc1ccccc1)NC(=O)Cc1ccc([N+](=O)[O-])cc1 (centres undefined)
  0.681 | 0.6 | 10.8 | -6.2 | 4.0 | 6.1 | -2.6 | 1.7 | x
17) Nc1ccccc1C(=O)OCCc1ccccc1
  0.673 | -9.5 | -9.9 | 6.3 | 4.3 | -56.8 | 7.1 | -12.2 | i
18) Clc1ccc(C(Cn2ccnc2)OCc2csc3c(Cl)cccc23)c(Cl)c1 (centres undefined)
  0.644 | x | x | x | 1.3 | 4.7 | 8.8 | -2.0 | i
19) CN1C(=O)C(c2ccccc2)C(=O)N(C)C1=O
  0.656 | 19.0 | 6.8 | -2.3 | 2.1 | 11.6 | -9.2 | 7.0 | i
20) CC(=O)c1ccc(OC(NC(=O)Cc2ccccc2)C(Cl)(Cl)Cl)cc1 (centres undefined)
  0.689 | x | x | x | -1.4 | 1.2 | -1.8 | 5.1 | x
21) CCOc1cc(-c2nc3c(C)cccn3c2NCC2CCCO2)ccc1O (centres undefined)
  0.647 | x | x | x | 3.4 | i | 0.1 | 96.5* | x
22) COc1ccc(NC(=O)CN(C)C(=O)CSC(c2ccccc2)c2ccccc2)cc1
  x | -6.7 | -37.8 | 5.4 | -3.2 | x | 4.3 | -6.1 | i
23) CC(=NCc1ccc2c(c1)OCO2)c1c(O)n(C)c(=O)n(C)c1=O
  0.695 | x | x | x | -2.9 | 5.3 | 1.6 | -12.7 | x
24) CC(CO)(CO)N=Cc1c(O)n(-c2cccc3ccccc23)c(=O)[nH]c1=O
  0.703 | x | x | x | 5.0 | 0.3 | -4.0 | x | x
25) COc1ccc(C(c2nnnn2-c2ccc(OC)cc2)N2CCC(n3c(=O)[nH]c4ccccc43)CC2)cc1 (centres undefined)
  x | 3.9 | -6.8 | 3.2 | 1.7 | x | x | x | i
26) CCn1c(O)c(N=Nc2ccc(S(=O)(=O)N3CCOCC3)cc2)c(=O)n(CC)c1=S
  0.715 | 5.0 | 3.1 | 1.0 | 5.4 | 4.8 | 12.9 | -4.8 | i
27) Cn1c(O)c(C=NCCCNC2CCCCC2)c(=O)n(C)c1=O
  0.776 | x | x | x | 1.8 | -3.2 | -2.5 | -5.1 | x
28) CN(C)c1ccc(/C=C2\CC3C4CC=C5CC(O)CCC5(C)C4CCC3(C)C2=O)cc1 (centres undefined)
  x | x | x | x | -1.9 | 1.3 | 22.4 | -2.4 | x
29) CCC1(C(=O)c2ccc(C)cc2)C2c3ccccc3OC(=O)C21C(=O)O (centres undefined)
  0.649 | 6.2 | 3.7 | 0.9 | 2.2 | 4.0 | -3.2 | 0.4 | i
30) O=C(CCN1CC2CCC(CC2)C1)c1cccs1
  x | 5.5 | 7.0 | -1.4 | 2.8 | x | -2.8 | x | i
31) COc1cccc(C(=O)N2CCC3(CC2)OCCO3)c1
  0.668 | 6.4 | -5.5 | 2.9 | 7.1 | 2.9 | -0.9 | -1.6 | i
32) Cc1ccc2c(CN3CC=C(c4ccccc4)CC3)cc(=O)oc2c1C
  0.74 | -18.1 | -15.9 | -8.1 | -0.2 | 3.5 | -9.5 | -3.3 | i
33) CCOP(=O)(OCC)C(O)c1ccc(OC)cc1 (centres undefined)
  0.682 | x | x | x | 2.8 | 2.4 | -11.3 | x | i
34) CC(=O)CC(=O)C1C(=O)N(C)C(=O)N(C)C1=O
  0.696 | 9.6 | 4.8 | -1.9 | 0.3 | 2.1 | 2.0 | -12.7 | i

For reference, part of the list above:
Results follow in this order: E coli growth | rRNA inh HTS | rRNA inh HTS OD600 | rRNA inh HTS RFP | HNF4A DNA FP | UCH37 inh | B2AR ag | ALR inh | FGF22 binding
18) Clc1ccc(C(Cn2ccnc2)OCc2csc3c(Cl)cccc23)c(Cl)c1 (centres undefined)
  0.644 | x | x | x | 1.3 | 4.7 | 8.8 | -2.0 | i
19) CN1C(=O)C(c2ccccc2)C(=O)N(C)C1=O
  0.656 | 19.0 | 6.8 | -2.3 | 2.1 | 11.6 | -9.2 | 7.0 | i
20) CC(=O)c1ccc(OC(NC(=O)Cc2ccccc2)C(Cl)(Cl)Cl)cc1 (centres undefined)
  0.689 | x | x | x | -1.4 | 1.2 | -1.8 | 5.1 | x
21) CCOc1cc(-c2nc3c(C)cccn3c2NCC2CCCO2)ccc1O (centres undefined)
  0.647 | x | x | x | 3.4 | i | 0.1 | 96.5* | x
22) COc1ccc(NC(=O)CN(C)C(=O)CSC(c2ccccc2)c2ccccc2)cc1
  x | -6.7 | -37.8 | 5.4 | -3.2 | x | 4.3 | -6.1 | i
23) CC(=NCc1ccc2c(c1)OCO2)c1c(O)n(C)c(=O)n(C)c1=O
  0.695 | x | x | x | -2.9 | 5.3 | 1.6 | -12.7 | x
24) CC(CO)(CO)N=Cc1c(O)n(-c2cccc3ccccc23)c(=O)[nH]c1=O
  0.703 | x | x | x | 5.0 | 0.3 | -4.0 | x | x
25) COc1ccc(C(c2nnnn2-c2ccc(OC)cc2)N2CCC(n3c(=O)[nH]c4ccccc43)CC2)cc1 (centres undefined)
  x | 3.9 | -6.8 | 3.2 | 1.7 | x | x | x | i
26) CCn1c(O)c(N=Nc2ccc(S(=O)(=O)N3CCOCC3)cc2)c(=O)n(CC)c1=S
  0.715 | 5.0 | 3.1 | 1.0 | 5.4 | 4.8 | 12.9 | -4.8 | i
27) Cn1c(O)c(C=NCCCNC2CCCCC2)c(=O)n(C)c1=O
  0.776 | x | x | x | 1.8 | -3.2 | -2.5 | -5.1 | x
28) CN(C)c1ccc(/C=C2\CC3C4CC=C5CC(O)CCC5(C)C4CCC3(C)C2=O)cc1 (centres undefined)
  x | x | x | x | -1.9 | 1.3 | 22.4 | -2.4 | x
29) CCC1(C(=O)c2ccc(C)cc2)C2c3ccccc3OC(=O)C21C(=O)O (centres undefined)
  0.649 | 6.2 | 3.7 | 0.9 | 2.2 | 4.0 | -3.2 | 0.4 | i
30) O=C(CCN1CC2CCC(CC2)C1)c1cccs1
  x | 5.5 | 7.0 | -1.4 | 2.8 | x | -2.8 | x | i
31) COc1cccc(C(=O)N2CCC3(CC2)OCCO3)c1
  0.668 | 6.4 | -5.5 | 2.9 | 7.1 | 2.9 | -0.9 | -1.6 | i
32) Cc1ccc2c(CN3CC=C(c4ccccc4)CC3)cc(=O)oc2c1C
  0.74 | -18.1 | -15.9 | -8.1 | -0.2 | 3.5 | -9.5 | -3.3 | i
